Screening results (PubChem)
Biofilm kill mix = mixtures killing C. albicans biofilm. C. albicans biofilm persisters + clotrimazole, fluorescence viability; primary screen in compound mixtures of four per well. inhibition, % at 7.6 µM. 0.02% of 120,000 active;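 active = inhibition above 30.3% in the primary screen of four-compound pools, then above 30% when the compound was retested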;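 note: compounds exposed to preformed 24 h biofilms for 48 h; the number belongs to the whole pool; some results filed as inactive read as strong as hits; inactives centre near 12; 0% = biofilm with clotrimazole alone and 100% = kill control; retested singly at about 60 µM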
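Assay system: C. albicans biofilms / Medium: RPMI/MOPS medium, pH 7.0 / Schedule: biofilm formation 24 h, compound exposure 48 h, 37 °C / Measured by: Alamar Blue fluorescence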
* = called active by the depositor. An excerpt (hit frequency here may not be typical).

mol | Biofilm kill mix
CC(C)C[C@H](NC(=O)c1nc[nH]c1C(=O)N1CCC(C)CC1)C(=O)OCc1ccccc1 | 13.0
Cc1ccc(N/C(N)=N/c2nc(C)cc(N3CCCCC3)n2)c(C)c1 | 11.8
O=C(NCCc1c[nH]c2ccccc12)C(=O)NCC1OCCCN1S(=O)(=O)c1cccs1 (stereo not given) | 21.9
Nc1ccc(C(=O)OCC(=O)Nc2cc([N+](=O)[O-])ccc2F)cc1 | 12.1
COC(=O)c1cccc(NC(=O)C23CC4CC(C2)CC(n2cncn2)(C4)C3)c1 | -4.0
O=C(COC(=O)Cn1cnc2ccccc2c1=O)Nc1ccc(Cl)cc1 | 18.0
CCOC(=O)c1cnn(-c2ccccc2)c1NC(=O)CCl | 2.9
COc1cc([N+](=O)[O-])ccc1-c1ccc(/C=N/NC(=O)OC(C)(C)C)o1 | -3.9
CC1CCC/C(=N\NC(=O)c2ccncc2)C1 (stereo not given) | -9.8
O=C(Nc1ccccc1)C(=O)c1cn(CC(=O)N2CCCCC2)c2ccccc12 | 8.9
CCN(CC)C(=O)CSc1ccc(C(F)(F)F)cc1[N+](=O)[O-] | 5.4
COc1ccccc1/C=C1\SC(=S)N(C(C(=O)O)c2ccccc2)C1=O (stereo not given) | 23.2
Cc1ccc(NC(=O)CSc2nc3c([nH]c4ccccc43)c(=O)n2C)cc1 | 17.6
CC/C(C)=N/Nc1nc2c(c(=O)[nH]c(=O)n2C)n1CCc1ccccc1 | 36.8
COc1ccc(N2CCN(C(c3ccco3)c3sc4nc(C)nn4c3O)CC2)cc1 (stereo not given) | 12.2
O=C(N/N=C\C=C\c1ccco1)C1COc2ccccc2O1 (stereo not given) | 17.2
COc1ccc(C2C(C(=O)Nc3cc(OC)c(OC)c(OC)c3)c3ccccc3C(=O)N2C)cc1 (stereo not given) | 21.5
CC(C)C[C@H](N)c1cn([C@@H](Cc2cc3ccccc3[nH]2)C(=O)N2CCNCC2)nn1 | 18.7
COc1ccc(OC)c(NC(=O)Cn2c(CCC(=O)O)ccc2-c2ccc(C)cc2)c1 | 13.5
CCN(CC)C(=O)CCCSc1nnc(Nc2ccccc2F)s1 | 2.2
Cc1nnc(NC(=O)CSc2nnc(-c3ccco3)o2)s1 | 10.6
Cc1ccc(C(=O)N2C(=O)c3cccc(N)c3C2=O)o1 | 16.9
CC(C)N(C(=O)CSc1nnc(CSc2ncccn2)n1C)C(C)C | 17.5
O=C(Nc1ccccc1Cl)C(Cl)C(=O)c1ccccc1 (stereo not given) | 14.9
Cc1ccccc1CSc1nnc(C)c(=O)n1N | -1.5
CC(C)n1c(SCC(=O)Nc2ccccc2N2CCOCC2)nc2c1c(=O)n(C)c(=O)n2C | 7.4
Cc1ccc(C(=O)NC(=S)N2CCN(C(=O)OC(C)(C)C)CC2)cc1Br | 2.8
Cc1ccc(C(=O)Nc2cc(Cl)ccc2Oc2ccccc2)cc1[N+](=O)[O-] | 14.9
COCCN1C(=O)N[C@@H](c2ccc(Br)cc2)C(C(C)=O)=C1C | 6.8
COCCN1C(=O)N(C)[C@@H](c2ccccc2)C(C(C)=O)=C1C | 14.0
COc1ccc(/C=C/C(=O)NCc2ccc(F)cc2)cc1S(=O)(=O)N1CCOCC1 | 4.5
CNC(=S)N1N=C(c2ccc(C)cc2)CC1c1ccc(OC)c(OC)c1 (stereo not given) | 9.2
CC(=O)Oc1ccc(-c2cccc(C(=O)OCC(=O)Nc3ccccc3Oc3ccccc3)c2)cc1 | 14.8
O=C(CCc1nc2ccccc2s1)OCc1ccccc1F | 10.9
O=C(O)C(Cc1ccccc1)N=Cc1c(O)c2ccccc2oc1=O (stereo not given) | 14.6
CCN(CC)S(=O)(=O)c1ccc(NN=c2c(=O)c3ccccc3c2=O)cc1 | 20.8
Cc1cccc2cc(CNCC3CCCO3)c(Cl)nc12 (stereo not given) | -12.0
C/C(=N/OCO/N=C(/C)c1ccc(F)cc1)c1ccc(F)cc1 | 25.6
Cc1ccc(CC(=O)Nc2cccc(C#N)c2)cc1 | -2.0
O=C(CSc1nc(-c2ccco2)cc(C(F)(F)F)n1)N1CCSCC1 | 8.1
CC1=C(C(=O)N(C)C)C(c2ccccc2OC(F)F)NC(=O)N1 (stereo not given) | -1.9
Cn1nccc1C(=O)N1CCc2ccccc21 | 12.3
O=C(Cn1nc(-c2ccccc2)ccc1=O)Nc1ccc(N2CCN(C(=O)c3cccs3)CC2)cc1 | 27.6
COc1ccc(-c2[nH]ncc2CN2CCC(c3ccncc3)CC2)cc1F | 10.3
COc1cc2c(cc1OC)CN(CC(=O)NC(=O)NC1CCCCC1)CC2 | 7.5
N=c1c2ccccc2nnn1-c1cccc(C(F)(F)F)c1 | 10.9
COc1ccc(-n2c(=O)c3ccccc3c3ccccc3c2=O)c(OC)c1 | 5.5
C=CCc1ccc(OCCOc2cccc3cccnc23)c(OC)c1 | -8.5
CCCc1cc(-c2n[nH]c(=S)n2CC(C)C)cs1 | 16.9
CCc1ccc(NC(=O)C(C)OC(=O)C2CCC(=O)N2)cc1 (stereo not given) | 11.3

Remaining list, next part.
mol | Biofilm kill mix
Cc1c(Cc2ccc3c(c2)OCO3)sc(NC(=O)c2cccc3ccccc23)c1C(N)=O | 10.2
COc1cccc(NC(=O)CSc2nc3ccccc3c(=O)n2Cc2cccs2)c1 | 15.8
CCN(CCS(=O)(=O)c1ccc(Cl)cc1)C(=O)Nc1ccccc1 | 16.4
C[C@H](NC(=O)c1nc[nH]c1C(=O)N[C@H](C)c1ccccc1)C(=O)OC(C)(C)C | 14.4
C=CC[n+]1c(-c2ccc(C)cc2)csc1Nc1c(C)n(C)n(-c2ccccc2)c1=O | 14.3
CC(NS(=O)(=O)c1ccc(Br)cc1)C(=O)NCc1ccco1 (stereo not given) | 11.0
COc1ccc(/C=N/n2cnc3scc(-c4cccs4)c3c2=O)cc1OC | 14.9
CC(OC(=O)c1ccc2ncsc2c1)C(=O)N1CCCC1 (stereo not given) | 6.5
CCO/C([O-])=N/c1sn[n+](C)c1C | 2.7
O=C(NCc1cccnc1)c1ccc([N+](=O)[O-])o1 | 26.1
Cc1cccc(C(=O)NC2CCN(C(=O)Nc3ccccc3C)CC2)c1 | 17.5
Cc1ccc(-c2cccc(CN3CCN(C(C)C)C(CCO)C3)c2)o1 (stereo not given) | 15.1
O=C1C2C(c3ccccc3)CC=CC2[C@H](c2cccc([N+](=O)[O-])c2)N1Cc1ccccc1 (stereo not given in full) | 14.9
Cc1cc(C)cc(NC(=O)Oc2ccccc2N2CCCCC2)c1 | 14.6
OCCCNc1nc(-c2ccc(Br)cc2)nnc1-c1ccc(Cl)cc1 | 11.6
Cn1nc(/C=C/c2ccccc2)ccc1=O | -0.6
N/C(CC(=O)NC1CCCCC1)=N\OCC(=O)Nc1ccc(Cl)c(Cl)c1 | 14.4
NC(=O)c1cc2ccncc2c2ccccc12 | 25.7
Cc1ccc(NC(=O)Cn2nnc3ccccc32)c(C)c1 | 5.0
O=C(Cn1nc(-c2ccccc2)ccc1=O)Nc1ccc(-n2cnnn2)cc1 | 0.7
COC(=O)c1ccc(COc2ccc3c(c2)CCC3)o1 | 16.6
O=C1CS/C(=N/N=C/c2cccs2)N1 | 7.3
O=c1oc2cc(S(=O)(=O)NCCCO)ccc2c2ccc(S(=O)(=O)NCCCO)cc12 | 23.2
Cc1nc(N)sc1C(=O)OCC(C)C | 11.0
COc1ccc(C(=O)NC(=S)Nc2ccc3c4c(cccc24)CC3)cc1OC | 7.2
CCOc1ccccc1NC(=O)CC1SC(=N)N(c2ccccc2)C1=O (stereo not given) | 11.4
CCOC(=O)C(CC)(CC)C(=O)/C=C/c1ccc(OC)cc1 | 6.1
CCN(CCn1cccn1)Cc1nc(-c2ccc(C(=O)OC)cc2)no1 | 10.3
COc1ccc(N=C2C(=O)N3CCCc4cccc2c43)cc1 | 5.2
Cc1cnn(CCC(=O)NNC(=S)NCC(C)C)c1 | 2.9

In the list so far, these contain a tert-butyl group.
mol | Biofilm kill mix
COc1cc([N+](=O)[O-])ccc1-c1ccc(/C=N/NC(=O)OC(C)(C)C)o1 | -3.9
Cc1ccc(C(=O)NC(=S)N2CCN(C(=O)OC(C)(C)C)CC2)cc1Br | 2.8
C[C@H](NC(=O)c1nc[nH]c1C(=O)N[C@H](C)c1ccccc1)C(=O)OC(C)(C)C | 14.4

Other results follow.
smiles	Biofilm kill mix
CC(C)C(=O)N1CCC2(CC1)Oc1ccc(F)cc1C(=O)C21CC(c2cccnc2)=NO1 (stereo not given)	7.6
Cc1ccc2nc(C)c(C(=O)O)cc2c1	9.9
C#CCSc1nnc(-c2ccc([N+](=O)[O-])cc2)o1	16.8
CC(=O)N1N=C(C)CC1c1ccc(OCc2ccccc2)cc1 (stereo not given)	9.6
O=C(COc1ccc2ccccc2c1)N1CCN(C(=O)c2ccc([N+](=O)[O-])cc2)CC1	16.4
COc1cc2nc(C)sc2cc1SC	14.2
Cc1cc(Br)ccc1NC(=O)c1ccccc1-c1ccccc1	25.2
CCC(=O)N1N=C(c2cccs2)CC1c1ccco1 (stereo not given)	8.8
CCCn1c(SCC(=O)N2N=C3/C(=C/c4ccc(OC)cc4)CCCC3C2c2ccc(OC)cc2)n[nH]c1=O (stereo not given)	6.7
COCCN(C(=O)CSc1nnc(-c2cccc(OC)c2)n1C)c1c(N)n(Cc2ccccc2)c(=O)[nH]c1=O	3.9
Cc1cc(C)c(C#N)c(Oc2ccccc2Br)n1	16.4
Cc1ccc2nc(-c3ccccc3)c(CN3CCSCC3)n2c1	12.0
CC(=O)Nc1ccc2nc(N)sc2c1	12.2
O=C(NNC(=S)NCc1ccco1)c1ccc(S(=O)(=O)N2CCOCC2)cc1	2.9
CCn1c(SCC(=O)NC)nnc1C(C)C	8.6

Exported field by field: 4 of the compounds above
> CCN(CCn1cccn1)Cc1nc(-c2ccc(C(=O)OC)cc2)no1
  Biofilm kill mix: 10.3
> COc1ccc(N=C2C(=O)N3CCCc4cccc2c43)cc1
  Biofilm kill mix: 5.2
> Cc1cnn(CCC(=O)NNC(=S)NCC(C)C)c1
  Biofilm kill mix: 2.9
> CC(C)C(=O)N1CCC2(CC1)Oc1ccc(F)cc1C(=O)C21CC(c2cccnc2)=NO1 (stereo not given)
  Biofilm kill mix: 7.6

The listing continues.
smiles	Biofilm kill mix
CCOC(=O)C1CCCN(C(=O)c2ccc(C)c([N+](=O)[O-])c2)C1 (stereo not given)	15.4
COc1cc(C2Nc3ccccc3C(=O)N2c2ccc(Cl)cc2)c(Cl)cc1OCC(=O)O (stereo not given)	20.2
O=C(O)/C=C/c1ccc(S(=O)(=O)Nc2ccc(C(=O)NCC(=O)O)cc2)cc1	3.7
CN1CCc2c(C#N)c(N3CCOCC3)nc(NCC3CCCO3)c2C1 (stereo not given)	11.5
NC(=O)C(=O)NCCCN1CCOCC1	8.3
CCOC(=O)c1c(C)[nH]c(C(=O)COC(=O)[C@H](C)NC(=O)c2ccccc2Cl)c1C	10.8
CN(C)S(=O)(=O)c1ccc(NC(=O)CSc2nc3ccccc3n2-c2ccccc2)cc1	13.4
CC1(C)CC(N2CCN(Cc3ccccc3)CC2)=CC(=[N+]2CCCCC2)C1	11.8
NC(=O)C1=C[C@H](c2coc3ccccc3c2=O)C[C@H](OCc2ccc(CO)cc2)O1	14.0
Cc1ccc(OCC(=O)Nc2ccc(S(=O)(=O)N3CCN(C)CC3)cc2)cc1	10.8
Cc1ccc(NC(=O)c2cnccn2)cc1S(=O)(=O)N(C)C	1.9
Cc1ccc(CNC(=O)COC(=O)c2ccc(S(=O)(=O)N(C)C)cc2)cc1	3.9
Cc1cc(C(=O)COc2ccc3ccc(=O)oc3c2)c(C)n1Cc1cccs1	11.3
Cc1ccc(NC(=O)c2ccccc2NS(=O)(=O)c2ccc(Cl)s2)cc1S(=O)(=O)N1CCOCC1	11.5
O=[N+]([O-])c1cc(/C=N\Nc2nc(-c3ccccc3)cs2)ccc1O	3.1
CCN(CC)S(=O)(=O)c1ccc(NC(=O)CSc2ncnc3ccccc23)cc1	-13.4
C[C@H](NC(=O)c1nc[nH]c1C(=O)N[C@@H](Cc1ccccc1)C(=O)OC(C)(C)C)C(=O)OC(C)(C)C	14.6
COc1ccccc1CCNC(=O)CSc1ccc(-c2cccs2)nn1	10.2
C=C(C)C(=O)OCC(=O)NCc1ccccc1	5.1
Cn1ncc(C(=O)Nc2ccc(Cl)cc2)c1C(F)(F)F	10.7
CCOC(=O)c1ccc(NC(=S)N2CCN(CCN=CC3=C(O)CC(c4ccccc4)CC3=O)CC2)cc1 (stereo not given)	23.3
CC(C)(C)Sc1ccc(/C=N/O)cc1[N+](=O)[O-]	16.2
CCOc1cccc2cc(-c3csc(NC(=O)CCC(=O)NCCN4CCCCC4C)n3)c(=O)oc12 (stereo not given)	12.7
O=C(Nc1cccc2oc(=O)ccc12)c1ccc([N+](=O)[O-])cc1[N+](=O)[O-]	15.4
CCOC(=O)C(C)Sc1ccc2nnc(CCNS(=O)(=O)c3ccc(C)cc3)n2n1 (stereo not given)	13.8
Cc1cccc(N2CC(O)(c3cccs3)[N+]3=C2CCCC3)c1 (stereo not given)	13.5
C=CCNc1ccc(C(=O)O)cc1	16.2
O=C(COc1ccccc1)N/N=C/c1ccc2c(c1)OCO2	10.5
COc1ccccc1CN1CN(S(=O)(=O)c2ccccc2)c2nc3ccccc3nc21	-0.8
CC(=O)Nc1ccc(-c2cc(N)n(-c3ccccc3)n2)cc1	16.7
Cc1nn(C)c(C(=O)NN)c1Cl	10.7
COc1cc(NC(=O)c2cccc(C)c2)c(OC)cc1NC(=O)CN1CCOCC1	12.3
CCOc1ccc(N2C(=O)C(CC(=O)Nc3ccccc3)N(Cc3ccccn3)C2=S)cc1 (stereo not given)	-7.8
O=C1CCCN1c1ccc(S(=O)(=O)Nc2cccnc2)cc1	-2.5
COc1ccc(C(=O)NCc2nnc(SCC(=O)N3CCc4ccccc43)n2Cc2ccccc2)cc1	11.6
COc1ccc(C(C(=O)NCC2CCCO2)N(C(=O)CNC(=O)c2cccs2)c2ccccc2)cc1OC (stereo not given)	14.7
Cc1cc(O)c(/C=N/Nc2ccc(F)cc2)c(=O)o1	15.2
Cc1ccc(/C=N/n2c(C)cc(C)c(C#N)c2=O)o1	7.3
